Screening results deposited in PubChem BioAssay by several laboratories.
T cruzi repl: inhibitors of intracellular T. cruzi growth, primary screen, luminescence, NIH3T3 host cells; 300,000 tested, 1.4% active; inhibition, % (concentration not given with the values); AID 1885, 2009; T. cruzi beta-gal in NIH3T3, 90 h;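 active means mean inhibition across valid replicates above about 55%, limit read from the data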;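 further: signal also drops with host cell toxicity which is not excluded here; 0% = plate median of DMSO wells and 100% = zero luminescence signal; higher percent means less beta-gal luminescence so fewer parasites; stock transfer was 50 nL into about 50 µL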
FGF22 binding: binders of human FGF22 protein, primary screen, FGF22 synaptogenesis inhibitor project, biophysical, thermal shift, single point; Fibroblast growth factor 22 (Homo sapiens), Q9HCT0; recombinant FGF22 thermal shift, SYPRO orange fluorescence; percent of sucrose octasulfate shift, DMSO zero; calls only at 9.99 µM; 340,000 tested, 1.5% active; AID 651658, 2012;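 active means melting point raised past a set limit in the mean and every replicate; three in four hits are not shown here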
UCH37 inh: inhibitors of human UCH37 deubiquitinase, primary screen, biochemical, Ub-AMC cleavage, fluorescence | Ubiquitin carboxyl-terminal hydrolase isozyme L5 (Homo sapiens), Q9Y5K5 | inhibition, % (test concentration not listed) | 330,000 tested, 0.33% active | purified proteasome/UCH37;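 active means mean of two replicates above 20%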;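 further: 0% = compound-free wells with enzyme and 100% = wells lacking proteasome; stock transfer was 100 nL into about 20 µL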
Target sequence (Q9Y5K5 whole entry, looked up): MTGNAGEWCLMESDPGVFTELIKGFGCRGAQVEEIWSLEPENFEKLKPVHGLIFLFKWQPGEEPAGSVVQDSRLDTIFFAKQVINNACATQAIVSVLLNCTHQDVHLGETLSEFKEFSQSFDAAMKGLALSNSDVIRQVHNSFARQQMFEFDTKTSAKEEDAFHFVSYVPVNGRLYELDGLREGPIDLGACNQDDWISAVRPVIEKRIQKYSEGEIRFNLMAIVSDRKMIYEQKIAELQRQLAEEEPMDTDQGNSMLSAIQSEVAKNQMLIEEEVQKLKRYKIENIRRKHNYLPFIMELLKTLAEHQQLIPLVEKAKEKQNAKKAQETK
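assay system = human UCH37 enzyme supplied as purified proteasome complex | amount = proteasome at 0.15 nM in the dispensed enzyme solution | schedule = 30 min compound-proteasome preincubation then 25 min substrate reaction, room temperature | measured by = fluorescence, ex 355 nm, em 460 nm | benchmarks = no-proteasome wells (full inhibition) and compound-free wells (no inhibition)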
rRNA inh HTS: reduced GFP signal of wild-type E. coli, primary screen, bacterial rRNA inhibitor project, GFP/RFP fluorescence, OD600, single point. E. coli WT GFP vs humanized-ribosome RFP mutants, 24 h; active compounds read low; DMSO median 0, no signal -100. AID 720706, 2013. 350,000 tested, 1.6% active. GFP signal change (wild-type ribosome), % (no concentration beside the values);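 active means significant combined selectivity score with lowered wild-type GFP, culture density cut under 30%, mutant RFP and density less affected; inactive means any of these conditions unmet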; further: one replicate is shown; some compounds called inactive have numbers as strong as hits
A1 inh: caspase 3/7 activation in MEF A1-2A-BIM cells, primary screen, A1 inhibitor project, cell-based, luminescence, HTS; Caspase-Glo 3/7 luminescence, 3 h; percent of clofoctol response, vehicle zero; caspase activation, % (no concentration beside the values); 330,000 tested, 0.066% active;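 active means over half of replicate activation scores above 10%, or exactly half above 10 with the replicate mean above 10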;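 further: wells of about 30 µL received 50 nL stock; many hits fall short of the cut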
AF4-AF9 inh: inhibitors of AF4 peptide binding to AF9, primary screen, biochemical, AlphaScreen, biotin-AF4 peptide, FLAG-AF9, single point. inhibition, % at 10 µM. 350,000 tested, 0.47% active. Protein AF-9 (Homo sapiens), P42568. AID 651704, 2012;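 active means every replicate reaching a set inhibition limit, whatever the replicate mean, cut at about 25% in these data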;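 further: 0% = plate neutral control median and 100% = total signal loss; the record names both 10 and 1 µM as test concentration; the first replicate is given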
Target sequence (P42568 whole entry, looked up): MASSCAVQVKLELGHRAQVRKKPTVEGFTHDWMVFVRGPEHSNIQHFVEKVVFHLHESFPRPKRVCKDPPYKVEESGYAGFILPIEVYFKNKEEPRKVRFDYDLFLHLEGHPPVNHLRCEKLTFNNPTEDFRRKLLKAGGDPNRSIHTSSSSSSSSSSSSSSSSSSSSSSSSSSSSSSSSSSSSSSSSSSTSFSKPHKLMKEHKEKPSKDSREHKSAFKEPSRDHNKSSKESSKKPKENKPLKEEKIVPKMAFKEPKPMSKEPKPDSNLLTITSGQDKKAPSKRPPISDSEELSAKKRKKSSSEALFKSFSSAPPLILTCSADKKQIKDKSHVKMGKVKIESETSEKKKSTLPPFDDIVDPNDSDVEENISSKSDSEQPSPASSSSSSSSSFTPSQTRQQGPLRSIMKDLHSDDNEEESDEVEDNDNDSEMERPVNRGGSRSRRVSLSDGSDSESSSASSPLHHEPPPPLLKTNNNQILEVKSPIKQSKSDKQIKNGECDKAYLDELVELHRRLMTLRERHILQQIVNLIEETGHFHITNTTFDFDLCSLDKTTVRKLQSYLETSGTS
Ecoli growth: E. coli growth inhibition, primary screen, OD600 | 330,000 tested, 0.21% active | Escherichia coli growth, 23 h; active compounds read low | OD600 absorbance (test concentration not listed);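 active means OD600 absorbance below the run mean of sample wells minus 3.6 SD, in any replicate, cut at about 0.56 in these data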;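 further: stock transfer was 300 nL into about 60 µL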
Beta apoptosis: inhibitors of cytokine-induced beta cell apoptosis, primary screen, luminescence; INS-1E cytokine-induced death, ATP luminescence, 48 h; percent of positive-control rescue, neutral wells zero; protection from apoptosis, % (concentration not given with the values); 300,000 tested, 0.8% active;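 active means all replicates at 75% or more, or half of them and the mean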;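 further: 0% = cytokine-treated negative control wells and 100% = positive control rescue; higher means more ATP so stronger rescue from cytokine killing; wells of about 40 µL received 100 nL stock; the first replicate is given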
rRNA inh HTS OD600: also measured in rRNA inh HTS; calls as there; OD600 change, %; measured here: OD600 growth;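 optical density of the mix in the first replicate; 0 = DMSO median and -100 = no signal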
rRNA inh HTS RFP: also measured in rRNA inh HTS; calls as there; RFP signal change, %; measured here: RFP humanized mutant strains;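 first replicate; 0 = DMSO median and -100 = no signal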
Active calls of the source: *; i = inactive; x = no result given. An excerpt (hit frequency here may not be typical).

SMILES	T cruzi repl	FGF22 binding	UCH37 inh	rRNA inh HTS	rRNA inh HTS OD600	rRNA inh HTS RFP	A1 inh	AF4-AF9 inh	Ecoli growth	Beta apoptosis
CN(Cc1cn(C)nc1-c1cccc(Cl)c1)C1CCOCC1	-5	i	0.9	14	5	-0.8	-0.4	-1.1	0.65	-7
CN1CCN(NC(=O)c2cc(S(=O)(=O)Nc3ccc(Cl)cc3)ccc2Cl)CC1	15	i	3.6	6	-1	-4.1	0.2	5.4	0.68	-3
CCSc1nc2c(sc3ccccc32)c(=O)n1C(C)C	32	x	4.8	x	x	x	0.5	x	0.68	-2
Cc1ccc(C)c(OCCC(=O)OCC(=O)NNC(=O)c2ccccc2)c1	x	i	0.2	-1	2	4.9	0.8	-0.2	0.7	-5
c1cc(CNC2=NCCCCC2)ccn1	-8	x	6.7	x	x	x	0.1	x	0.71	x
O=C(COC(=O)c1cc(Br)ccc1O)Nc1cccnc1Cl	-7	i	-3.5	1	8	0.5	-0.3	5.1	0.68	-9
CC(=O)c1ccc(OC(C)C(=O)Nc2cccc(S(=O)(=O)NCc3ccco3)c2)cc1 (centres undefined)	x	i	0.1	-1	2	0.4	0.1	0.9	0.71	3
CNC(=O)COC(=O)[C@@H](Nc1ccc(S(=O)(=O)N2CCOCC2)cc1[N+](=O)[O-])C(C)C	0	x	3.3	x	x	x	-0.2	x	x	3
CC1(c2nnc(-c3ccc(Cl)cc3)o2)CC(c2ccc(Cl)cc2)=NO1 (centres undefined)	-7	i	3.8	1	5	-5.4	-0.3	-0.4	0.71	-2
Cc1ccc(C2CC(=O)NC3=C2C(=O)CCC3)cc1Br (centres undefined)	-6	x	3.4	x	x	x	0.2	x	0.74	-5
CCn1c(C)nc2cc(C(=O)NN=Cc3ccccc3OC(F)F)ccc21	x	i	3.6	-8	-6	4.5	-7.4	1.0	0.69	1
CCc1nc(SCc2ccc(OC)cc2)n[nH]1	6	i	-0.9	-5	4	-10	-0.9	0.1	0.65	-18
Cc1ccccc1OCCSc1nc2ncnc(N)c2[nH]1	-15	i	2.2	8	4	-2.5	-0.5	-13	0.71	-7
CC(=O)c1c(N2CCN(C(=O)c3ccco3)CC2)nc(=S)n(-c2ccccc2)c1C	1	i	2.5	6	5	-0.4	-0.5	3.1	0.66	-1
COc1ccc(CSc2n[nH]c(C)n2)cc1Br	-14	x	2.9	x	x	x	-0.4	x	0.68	-6
COC(=O)c1c(NC(=O)C2CC2)sc(C(=O)Nc2ccccc2)c1C	1	i	2.3	3	22	3.2	-0.1	-0.5	0.67	8
COc1ccc(N2C(=O)CC(N3CCC(O)(c4cccc(C(F)(F)F)c4)CC3)C2=O)cc1 (centres undefined)	6	x	5.1	x	x	x	0.8	x	0.7	-7
CCOc1ccc(/C(O)=C2\C(=O)C(=O)N(c3ccc(OC)cc3)C2c2ccccc2[N+](=O)[O-])cc1 (centres undefined)	-25	i	9.7	-21*	6.2*	5.1*	-0.6	x	0.66	-3
Cc1ccc(N2C(=O)N(CC(=O)Nc3c(C)cc(C)cc3Cl)C(=O)C2C)cc1 (centres undefined)	2	i	-0.2	-3	-7	-2.0	0.9	6.0	0.63	1
O=C(/C=C/c1ccoc1)c1ccccc1O	8	x	4.6	x	x	x	-0.1	x	x	1
NS(=O)(=O)c1ccc(NC(=O)CSc2ncn[nH]2)cc1	0	i	5.2	17	12	0.8	-1.0	0.8	0.64	x
COc1ccc(CNc2nc(-c3ccccc3)nn2C(=O)c2cccs2)cc1	10	x	-6.2	x	x	x	-0.2	x	0.77	-19
C[C@H]1COC(=O)[C@H](Cc2ccc(F)cc2)C/C=C\C[C@@H](CC(=O)N(CCO)Cc2ccccc2)C(=O)N1	x	i	1.7	-10	-17	12	1.5	4.2	x	1
Cc1ccccc1OCC(=O)NCc1ccccc1	4	x	41*	8	-1	-0.3	-0.1	-1.6	0.68	-4
CCn1c(-c2cc3c(C(F)(F)F)nn(C)c3s2)n[nH]c1=S	-4	x	-41	x	x	x	-0.5	x	0.71	3
CCOc1ccc(S(=O)(=O)N2CCN(Cc3ccco3)CC2)cc1	6	i	1.7	8	4	2.0	0.0	2.5	0.69	0
CN=C(Cc1ccccc1)C1=C(O)CC(C)(C)CC1=O	-3	i	2.0	x	x	x	1.1	2.4	0.74	-9
O=C(COc1ccc(Br)cc1)N1CCN(c2ccccc2)CC1	-5	x	-1.2	9	9	-0.9	-0.2	x	0.69	-2
CC(C)N(C)C(=O)c1ccc(OC2CCN(CCc3ccccc3)CC2)cc1	33	i	5.2	1	4	-2.9	0.8	-8.7	0.67	-3
Cc1ccccc1Cn1cc(S(=O)(=O)c2ccc(C(C)C)cc2)c(=O)c2cc3c(cc21)OCO3	43	i	1.7	7	1	1.0	1.1	0.2	0.65	10
COc1ccc(C(=O)O)cc1S(=O)(=O)N(C)CCc1cccnc1	-10	x	0.4	x	x	x	0.1	x	0.7	x
COc1ccc([N+](=O)[O-])cc1NC(=O)CSc1nc(C)c(C)c(C)n1	-1	x	6.3	x	x	x	-0.8	x	0.7	-1
Cc1ccc(N2CCN(C3=NC(=O)C(Cc4ccccc4)S3)CC2)cc1 (centres undefined)	2	x	6.0	x	x	x	0.3	x	0.72	8
Cc1cc(C)nc(NS(=O)(=O)c2ccc(NC(=O)CCC3COc4ccccc4O3)cc2)n1 (centres undefined)	x	x	3.2	x	x	x	-0.8	x	0.76	-6
CC(=O)c1ccc(NC(=O)C2CC(=O)N(Cc3ccccc3)C2)cc1 (centres undefined)	-9	x	7.4	x	x	x	-0.2	x	0.67	-6
Cc1nc(N)sc1-c1csc(N(C)c2ccc(O)cc2)n1	-6	i	3.0	17	15	13	0.3	3.3	0.65	4
CCOC(=O)c1ccc(N2C(=O)CC(SCC(N)C(=O)OCC)C2=O)cc1 (centres undefined)	-1	x	1.3	x	x	x	0.2	x	0.69	-4
CCn1nnc2cc(C(=O)Nc3cc(OC)cc(OC)c3)ccc21	-8	i	3.8	-13	-13	-0.1	1.3	-0.8	0.67	-4
CSc1ncccc1C(=O)NC1CC(C)(C)Cc2c1cnn2-c1ccccc1C (centres undefined)	4	i	4.8	-9	-11	6.0	0.1	-2.1	0.71	2
COc1ccc(N(CC(=O)N2CCc3ccccc3C2)S(C)(=O)=O)cc1Cl	1	i	5.0	3	1	1.7	0.3	-4.5	0.68	x
Cc1sc2ncnc(N3CCCCC3C)c2c1C (centres undefined)	2	x	1.6	x	x	x	0.3	x	0.71	18
CC(C)c1ccc(NC(=O)c2ccc3c(c2)C(=O)N(Cc2cccnc2)C3=O)cc1	-10	i	4.9	-1	3	-4.5	-0.5	-3.6	0.68	5
Cn1c(N)c(S(=O)(=O)N2CCCC2)c(=O)n(C)c1=O	-17	i	3.5	15	13	5.2	-0.1	-1.6	0.7	1
Cn1c(SCc2ccc(C(C)(C)C)cc2)nnc1C1COc2ccccc2O1 (centres undefined)	16	i	2.9	-20	-46	18	0.7	2.7	0.63	-5
COc1ccc(/C=C2\CCCC(C(=O)C(F)(F)F)=C2O)cc1	-26	x	3.1	x	x	x	-0.5	x	0.68	2
O=C(NNc1nc(-c2ccccc2)cs1)c1ccc(F)cc1	-29	i	x	-8	-9	15	-2.0	11	x	-5
COC(=O)CCCC1=CC2=CC(=O)C(C)(OC(=O)c3cccs3)C(=O)C2=CN1CCc1ccccn1 (centres undefined)	-5	i	8.1	17	5	12	0.5	-3.5	0.67	-2
COc1ccc(C(=O)C2CCN(C(=S)Nc3ccc(F)cc3)CC2)cc1	9	i	0.0	-32	-32	14	-0.6	1.0	0.68	3
COc1ccccc1NC(=O)C(C)OC(=O)C1CC(=O)N(c2ccc3c(c2)OCCO3)C1 (centres undefined)	-20	i	x	-8	-10	-2.1	-0.8	0.2	x	-11
COCCNC(=O)CCC(=O)NNc1nc2ccccc2c2nc(C)nn12	4	i	3.8	4	7	-1.9	0.3	-0.5	0.72	-2
O=S(=O)(NCc1csc(-c2cccnc2)n1)c1cccs1	-3	i	1.4	0	0	2.4	-0.4	0.6	0.74	-1
Cc1cc([N+](=O)[O-])ccc1N=Nc1c(N)[nH]n(-c2ccccc2)c1=O	-4	i	7.4	15	8	2.7	-0.9	4.9	0.73	5
COc1ccc(-c2cc(C(=O)N3CCCC3)no2)cc1	2	i	7.7	-5	-1	-1.6	-6.4	-0.5	0.63	2
CNC(=O)C1=C(C)NC(=S)NC1c1cccs1 (centres undefined)	1	i	1.0	14	16	1.9	0.0	-4.9	0.66	-4
COc1cc([N+](=O)[O-])ccc1NC(=S)Nc1cccc(C(=O)O)c1	3	i	6.4	2	8	2.2	-7.2	7.6	0.64	4
NC(=O)C1CCN(C(=O)CN(C2CCCCC2)S(=O)(=O)c2ccc(F)cc2)CC1	5	i	-3.9	-26*	-16*	-1.9*	-0.4	4.3	0.69	-6
CC(CNC(=O)CCC(=O)N1CCOc2ccccc21)c1ccccc1 (centres undefined)	-4	i	0.7	4	-16	1.9	0.9	-2.8	0.77	-3
N=c1n(CCN2CCOCC2)c2ccccc2n1CC(=O)c1ccc(Cl)c(Cl)c1	2	x	1.2	x	x	x	0.4	x	0.7	17
